Compound activity: PubChem, National Center for Advancing Translational Sciences (NCATS)
2A StopGo = High Throughput Screening for Foot and Mouth Disease Virus Antivirals; human cells with a luciferase reporter of 2A StopGo recoding; control for the full effect not named in the record; Potency, µM (series often up to 57.9 µM), inactives show at the highest dose signal change, negative = less light; AID 1159524, 2015; 1.2% of 410,000 active; active = well fitted falling curve with a large enough effect; inconclusive = small, poorly fitted or top-dose-only effect; inactive = no such curve, though single readings can be large or run the other way; tested in HEK293T cells; note: % is set by controls: 0 for no effect and ±100 for the full control effect; nearly all actives have a fitted effect of over 45% in size; luciferase light after 4 h
Marburg entry inh = qHTS for inhibitors of binding or entry into cells for Marburg Virus; Marburg virus pseudotyped entry inhibition, cell reporter; control for the full effect not named in the record; about a third of the inactives were read at about 46 µM; Potency, µM (series often up to 37.8 µM), without a hit: at the top dose activity change, negative = inhibition, actives largely listed as inhibitors; 1.8% of 300,000 active; active = well fitted inhibition curve with a large enough effect; inconclusive = small, poorly fitted or top-dose-only effect, or effect the other way; inactive = flat fitted curve, though single readings scatter; tested in HEK293 cells; about a fifth of its hits are not listed in these tables; note: % is set by controls: 0 for no effect and ±100 for the full control effect; luciferase read-out
NS1 function inh = qHTS Assay for Inhibitors of Influenza NS1 Protein Function | S. cerevisiae slowed by influenza A NS1, growth recovery by OD600 | Potency, µM (titrated, usually from 46.1 µM), inactives show top-dose activity, positive = more growth | 0.4% of 270,000 active | AID 2326, 2010; note: actives are rising curves; nearly all actives have a fitted effect of over 50% in size
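Growth recovery, yeast-based: influenza A NS1 expressed in S. cerevisiae causes slow growth, and suppressors are detected by OD600. The parent strain without NS1 is used as positive control.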
LASV entry inh = qHTS for Inhibitors of binding or entry into cells for Lassa Virus; Potency, µM (top dose mostly 37.9 µM), inactives show top-dose activity change, negative = inhibition, most hits filed as inhibitors; Lassa virus pseudotype entry inhibition, cell reporter; control for the full effect not named in the record; 1.2% of 300,000 active; active means well fitted inhibition curve with a large enough effect; inconclusive means small, poorly fitted or top-dose-only effect, or effect the other way; inactive means flat fitted curve, though single readings scatter; tested in HEK293 cells; note: % is set by controls: 0 for no effect and ±100 for the full control effect; nearly all actives have a fitted effect of over 50% in size; luciferase read-out
Cruzain Triton = qHTS Assay for Promiscuous and Specific Inhibitors of Cruzain (with detergent) | purified cruzain, Z-FR-AMC fluorescence, 0.01% Triton | Potency, µM, for the others: max response, negative = inhibition, hits mostly inhibitors | 0.43% of 200,000 active; active = well fitted curve in the direction sought with a large enough effect; inconclusive = small, poorly fitted or top-dose-only effect, or another doubt; inactive = no such curve, though single readings can be large; an effect the other way counts as inactive or inconclusive;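 note: plate controls were neutral wells for no effect and buffer without enzyme for full effect; nearly all actives have a fitted effect of over 40% in size; top concentration of the series not given in the record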
Target sequence (P25779 123-467 limits assumed): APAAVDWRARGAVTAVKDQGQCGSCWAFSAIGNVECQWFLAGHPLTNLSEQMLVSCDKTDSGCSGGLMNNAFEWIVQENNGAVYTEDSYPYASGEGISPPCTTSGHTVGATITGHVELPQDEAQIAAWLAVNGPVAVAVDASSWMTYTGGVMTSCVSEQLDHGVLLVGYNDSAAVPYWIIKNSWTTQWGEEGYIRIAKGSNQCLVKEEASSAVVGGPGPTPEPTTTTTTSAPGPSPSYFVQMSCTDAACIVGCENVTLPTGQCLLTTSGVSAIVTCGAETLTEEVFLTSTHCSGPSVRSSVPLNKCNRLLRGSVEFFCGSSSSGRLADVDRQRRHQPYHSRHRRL
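Read-out: AMC fluorescence (360 nm excitation, 450 nm emission), four reads over 2 min, first-to-third difference used. Conditions: cruzain 1.5 nM, Z-FR-AMC 2 uM, pH 5.5 acetate, 5 mM DTT, 0.01% Triton X-100.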
SARS PLP yeast = qHTS of Yeast-based Assay for SARS-CoV PLP; S. cerevisiae expressing SARS-CoV PLpro, growth rescue; control for the full effect not named in the record; Potency, µM (top dose mostly 32.9 µM), inactives show at the highest dose activity, positive = growth rescue; AID 485353, 2010; 0.19% of 330,000 active; note: 0% is about no effect; nearly all actives have a fitted effect of over 55% in size; growth read by luminescence after 48 h
RE007 growth inh = qHTS Assay for Inhibitors of the HIV-1 protein Vpr; S. pombe RE007 Vpr strain, BacTiter-Glo ATP luminescence, 24 h; control for the full effect not named in the record; Potency, µM (top dose mostly 92.2 µM), without a hit: at the highest dose activity change, negative = less growth; 0.21% of 360,000 active; active = well fitted falling curve with a large enough effect; inconclusive = small, poorly fitted or top-dose-only effect; inactive = no such curve, though single readings can be large or run the other way;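 note: % is set by controls: 0 for no effect and ±100 for the full control effect; nearly all actives have a fitted effect of over 50% in size; the assay follows cell death caused by Vpr and the record does not say whether a fall means rescue or toxicity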
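Fission yeast RE007 carrying one integrated HIV-1 vpr copy, seeded at OD 0.01 in PMG+AL medium with 23 nL pinned compound. Grown 24 h at 30 degrees; viability read by BacTiter-Glo luminescence after 5 min.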
Cruzain inh noDet = qHTS Assay for Promiscuous and Specific Inhibitors of Cruzain (without detergent); purified cruzain, Z-FR-AMC fluorescence, no detergent; Potency, µM, without a hit: max response, negative = inhibition, most hits filed as inhibitors; 2.3% of 200,000 active; active = well fitted curve in the direction sought with a large enough effect; inconclusive = small, poorly fitted or top-dose-only effect, or another doubt; inactive = no such curve, though single readings can be large; an effect the other way counts as inactive or inconclusive;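 note: plate controls were enzyme without inhibitor for no effect and buffer without enzyme for full effect; nearly all actives have a fitted effect of over 40% in size; top concentration of the series not given in the record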
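Purified cruzain at 1.5 nM, pre-incubated 15 min with compound at room temperature in 100 mM sodium acetate pH 5.5, 5 mM DTT, 0.00005% Triton X-100. Reaction started with 2 uM Z-FR-AMC; AMC fluorescence increase over 60 s gives rate.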
An asterisk follows results filed as active; ? = inconclusive; · = not tested or not shown; & = joins results of further samples; [ ] = remark or other dose. Unless noted, calls come from the whole dose curve; as a rule, active means well fitted rising curve with a large enough effect; inconclusive means small, poorly fitted or top-dose-only effect; inactive means no such curve, though single readings can be large or run the other way. Potency is the fitted concentration of half-maximal effect.

SMILES | 2A StopGo | Marburg entry inh | NS1 function inh | LASV entry inh | Cruzain Triton | SARS PLP yeast | RE007 growth inh | Cruzain inh noDet
O=C(COC(=O)Cc1ccc(S(=O)(=O)N2CCOCC2)s1)Nc1ccc(OC(F)F)cc1 | 9% | 10% | · | 17% | · | 1% | -14% | ·
Cc1cc(C)c(NS(=O)(=O)c2cccc3cccnc23)c(C)c1 | 12% | -22%[46.1 µM] | · | -1% | · | -5% | 2% | ·
COc1cccc(NC(=O)NC(C)C2CC3CCC2C3)c1 (stereo not given) | 12% | ? | -17% | -26%[46.1 µM] | · | 0% | 2% | ·
CCSCc1nnc(SCC(=O)c2ccc(OC)cc2)n1C | 0% | 0% | -2% | 3% | -6.1% | 1% | 1% | 5%
Fc1ccc2c(c1)nnn2C1CCN(Cc2c(Cl)cccc2Cl)CC1 | ? | 0% | 1% | ? | -1.4% | -4% | 4% | -23%
Cc1ccccc1N1CCN(C2CCCN(C(=O)CCC3(C)CC3)C2)CC1 (stereo not given) | ? | 16% | -13% | -3% | · | -2% | -3% | ·
COC(=O)c1ccc(CN2C(=O)NC3(CCC(C)CC3)C2=O)cc1 (stereo not given) | -11% | ? | · | -1% | · | 0% | 12% | ·
Cc1ccc(N=C2NC(=O)/C(=C\c3cccs3)S2)cc1C | 37%[activator] | ? | -5% | ? | -4.4% | ? | -16% | 25µM*
CCc1cccc(C)c1NC(=O)C1CCN(c2nnc(C)c3c(C)n(-c4ccccc4)nc23)CC1 | -10% | · | · | 9%[46.1 µM] | -5.9% | · | · | 12%
N#Cc1nc(N2CCCCC2)nc(N2CCOCC2)n1 | · | -28%&-28%&-28% | -11% | -21% | 0.89µM* | -7% | 0% | 1µM*
Cc1ccc(-c2ccc(S(=O)(=O)NCc3ccco3)cc2)cc1 | 16% | ? | 1% | -9%[46.1 µM] | · | 1% | -5% | ·
C/C(=N\NC(=O)C(c1ccccc1)c1ccccc1)c1ccccn1 | ? | ? | -9% | ? | -4.1% | -1% | 7% | -17%
CCC(C)NC(=O)CSC1=Nc2ccccc2C2=NC(CC(=O)NCc3ccc(F)cc3)C(=O)N12 (stereo not given) | 14% | -9%&-9% | 7% | -1% | -2.0% | 3% | 21% | -4%
COc1cc(C2/C(=C(\O)c3ccc4c(c3)OCCO4)C(=O)C(=O)N2c2nnc(C)s2)cc(OC)c1OC (stereo not given) | 6% | 7%[46.1 µM] | 18% | 7%[46.1 µM] | · | 8% | -11% | ·
c1ccc2nc3c(nc2c1)OCC1CCCCN31 (stereo not given) | -2% | 8%[46.1 µM] | 2% | 2%[46.1 µM] | · | 0% | 2% | ·
Nc1c(-c2ccccc2)cnn1-c1cccc([N+](=O)[O-])c1 | 16% | -14% | -27% | 1% | 0.1% | -2% | ? | -10%
COc1ccc(CCC(=O)Nc2nnc(C(F)(F)F)s2)cc1 | -15% | · | -10% | · | · | 14% | -16% | ·
COc1ccc(CCNC(=O)c2[nH]c(C)c(C(C)=O)c2C)cc1OC | -20% | -28%[46.1 µM] | 2% | -1% | -1.5% | 3% | -3% | 2%
CCOCc1c(C(=O)NC2=Nc3ccccc3NC(CC)=C2C(=O)OCC)oc2ccccc12 | -19% | ? | · | ? | · | -1% | -14% | ·
O=C(NC1CCCCCC1)C(=O)NC1CCCC1 | 20% | ? | 12% | 6% | 0.1% | -10% | 4% | -10%
CC(CCN(C)C)OC(=O)c1ccc(C(C)c2ccccc2)o1 (stereo not given) | -4% | ? | -5% | 3% | 1.5% | 11% | 80% | -1%
CCOC(=O)C1CCN(CC(=O)c2ccc(O)c(C)c2O)CC1 | -2% | · | 3% | · | · | 11% | -9% | ·
COc1ccc(-c2nnc(SCC(=O)Nc3ncc(C(F)(F)F)cc3Cl)n2CC(C)C)cc1 | -16% | 17% | -11% | -1% | -4.4% | -5% | -3% | ?
O=C(NCc1cccc(F)c1)C1CCC(=O)N(C2CCCC2)C1 (stereo not given) | 0% | · | 7% | · | · | 0% | -4% | ·
CC(=O)N1CCN(Cc2nc3cc([N+](=O)[O-])ccc3n2C)CC1 | -3% | · | 5% | · | · | 1% | 2% | ·
CC(=O)NC1=NN(C(C)=O)C(C)(CCS(=O)(=O)c2ccc(Br)cc2)S1 (stereo not given) | -16% | 0% | -2% | 9% | -2.4% | 9% | 3% | 8%
CCOC(=O)c1cc(C)n(CC2CCC(C(=O)Nc3ccccc3OC)CC2)c1C (stereo not given) | -24% | · | · | -1%[46.1 µM] | -7.5% | · | · | 26%
O=C(c1ccc(Cl)c(S(=O)(=O)N2CCOCC2)c1)N1CCN(c2ccccc2F)CC1 | -22% | -6% | 3% | -14% | · | -2% | -7% | ·
CCN(C(=O)Cc1cccs1)c1nnc(-c2cccnc2)s1 | 38%[activator] | 0% | -12% | 6% | 0.0% | -1% | -10% | 0%
O=C(c1ccco1)N1CCN(c2nnc(-c3ccccc3)c3ccccc23)CC1 | 0% | -7% | -53% | -8% | -0.7% | -21% | -1% | 1%
COc1ccc(C(=O)N(C)C2CCCc3ccccc32)cc1OC1CCN(C(C)C)CC1 (stereo not given) | 20% | -15% | 4% | ? | · | -1% | 1% | ·
Cc1ccc(S(=O)(=O)N(Cc2ccccc2)C(C)C)cc1 | -16% | · | -53% | · | · | -11% | 7% | ·
O=C(NCCN1C(=O)CSC1=O)C1CC(=O)N(c2ccccc2)C1 (stereo not given) | -1% | 6% | 3% | 11% | -0.9% | -15% | -10%[3.69 µM] | -4%
CCc1ccc(NC(=O)C2CCCN(c3nnc(C)c4c(C)n(-c5ccccc5)nc34)C2)cc1 (stereo not given) | -16% | · | · | -1%[46.1 µM] | -1.4% | · | · | 15%
CCCCN(CC)CCCNC(=O)c1cc2c(=O)[nH]c3ccccc3c2n1C | -12% | ? | · | 0%[46.1 µM] | -13% | · | · | -21%
COC(=O)c1ccc(NC(=O)CSCC(=O)OCC(=O)c2ccc(Br)cc2)cc1 | -17% | 4% | -9% | ? | -4.5% | -7% | 12% | -4%
CCN(CC)S(=O)(=O)c1ccc(N2CCN(CCOc3ccc(OC)cc3)CC2)nc1 | 9% | 11µM* | 15% | -20%[46.1 µM] | · | -1% | 0% | ·
COc1ccc(CCNC(=O)c2c(O)nc3c(C)cccn3c2=O)cc1 | -15% | 12%[46.1 µM] | · | · | -7.9% | · | · | ?
Cc1ccc(S(=O)(=O)NCC(=O)Nc2ccc3c(c2)OCCO3)cc1 | 9% | 4% | 1% | -1% | · | 4% | 19% | ·
Cc1cc(NC(=O)c2c([N+](=O)[O-])c(C)nn2C)no1 | 0% | 6%[46.1 µM] | -3% | -3% | 4.8% | 6% | 24% | -1%
Cc1ccc(C(=O)CCC(=O)OCC(=O)Nc2ccc3[nH]c(=O)[nH]c3c2)cc1 | -13% | 0% | · | -4% | · | 3% | 9% | ·
O=C(/C=C/c1ccc(F)cc1)NC(=S)NC1CCCCC1 | 7% | · | -4% | · | · | 3% | -7% | ·
COc1cc(NC(=O)N[C@@H](CCSC)C(=O)O)cc(OC)c1 | 6% | 8% | ? | 0% | · | -1% | 0% | ·
CC(=O)c1ccc(Nc2cc(C)nc3c(C)cccc23)cc1 | 43%[activator] | · | -13% | · | · | 0% | -12% | ·
O=C(Nc1cccc2ncccc12)c1cccc(Br)c1 | -17% | -27%[46.1 µM] | -6% | -6%[46.1 µM] | · | -1% | -5% | ·
O=C(O)c1ccc2c(c1)ncn2-c1ccc(F)c(F)c1 | -9% | ? | · | ? | -0.1% | · | · | 4%
COc1ccc(N(CC(=O)NC(C)(C)C)C(=O)CCC(=O)Nc2nccs2)cc1 | -6% | · | -44% | · | · | -7% | -8% | ·
CCN1C(=O)/C(=c2\o/c(=C3\C=Cc4ccccc4N3CC)c(=O)n2CC)SC1=S | · | 4%&3% | -18% | -1% | -2.4% | 0% | -11% | -6%
N#CCCN1CCN(C(=S)c2ccc(-c3ccc(Cl)cc3)o2)CC1 | 24% | 1% | -55% | -14% | ? | -3% | -19% | ?
N#CCCN(CCC#N)C(=S)NC1CC2C=CC1C2 (stereo not given) | 7% | · | 3% | · | · | 2% | -8% | ·
Nc1nnnn1/N=C/c1ccccc1OCc1ccccc1 | 0% | ? | 16% | -4% | 3.0% | -4% | 6% | -5%
CN(C)S(=O)(=O)c1ccc(Cl)c(NC(=O)CN2CCCCCC2)c1 | -17% | -13%[46.1 µM] | · | -8% | · | 0% | -18% | ·
COc1ccccc1C(=O)Nc1ccc2c(c1)nc(CN1CCN(C(C)=O)CC1)n2C | 10% | -5% | 3% | ? | 4.1% | 2% | -4% | -2%
Cc1c(C(=O)Nc2cccc(Cl)c2)oc2ccc(S(=O)(=O)N(C)C3CCCCC3)cc12 | -17% | · | · | 19%[46.1 µM] | 0.8% | · | · | -3%
CCn1nc(C)cc1C(=O)N1CCCC(C(=O)c2ccc(OC)cc2C)C1 (stereo not given) | -28% | · | -4% | · | · | 1% | -5% | ·
O=C(O)C1CCN(C(=O)CSc2nc3cc(Cl)ccc3c(=O)n2Cc2ccccc2)CC1 | -2% | -11%[46.1 µM] | 30% | -2%[46.1 µM] | · | 6% | 5% | ·
CN(Cc1ccc2nonc2c1)Cc1nc(Cc2cccc(F)c2)no1 | -22% | · | 0% | · | · | 1% | -4% | ·
CN1CCN(S(=O)(=O)c2cc([N+](=O)[O-])ccc2N/N=C/c2ccc(Cl)cc2)CC1 | 16% | -1% | 9% | ? | 0.6% | 12% | -11% | 3%
CC1(C)CC(=O)CC(C)(C)N1OC(=O)c1ccco1 | -5% | 0%[46.1 µM] | 2% | 9% | 3.8% | 1% | 0% | -6%
